HCMV UL50-53 inh – inhibitors of HCMV UL50-UL53 interaction, biochemical, HTRF | HCMV UL50-UL53 nuclear egress complex (human cytomegalovirus) | normalized percent inhibition | inhibition, % (concentration not given with the values) | 190,000 tested, 0.15% active;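 active = both replicates at 50% or more, plus weaker picks with an unusually low signal ratio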;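 also: stock transfer was 100 nL into about 20 µL; 0% = negative control wells and 100% = wells with untagged competitor protein; inactives centre near -12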
GIV-Gai inh – inhibitors of GIV peptide binding to Galpha-i3, primary screen, biochemical, fluorescence polarization, FITC-GIV GBA peptide, rat Galphai3. 90 min; hits give low values; scaled: aluminum fluoride 0%, vehicle 100%. Guanine nucleotide-binding protein G(i) subunit alpha-3 (Rattus norvegicus), P08753. 210,000 tested, 0.42% active. AID 1224905, 2016. percent of control (FP), % (test concentration not listed);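 active = replicate mean at 85% of control or lower, very high polarization wells dropped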;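 also: wells of about 15 µL received 100 nL stock; the first replicate is given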
Target sequence (P08753 whole entry, looked up): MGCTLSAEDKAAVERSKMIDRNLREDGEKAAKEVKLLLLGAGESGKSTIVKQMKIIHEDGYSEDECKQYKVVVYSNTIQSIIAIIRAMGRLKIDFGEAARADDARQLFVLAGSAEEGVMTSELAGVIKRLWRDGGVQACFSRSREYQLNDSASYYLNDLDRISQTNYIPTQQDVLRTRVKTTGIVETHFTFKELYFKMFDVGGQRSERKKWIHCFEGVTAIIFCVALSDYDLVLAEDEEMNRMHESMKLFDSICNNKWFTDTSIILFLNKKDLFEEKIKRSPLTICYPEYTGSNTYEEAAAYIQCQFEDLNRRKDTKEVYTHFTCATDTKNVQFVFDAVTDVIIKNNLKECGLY
Sa growth inh – S. aureus growth inhibition at 42 and 30 °C, primary screen, LtaS inhibitor project, RN4220, two temperatures; OD600, 20 h, 42 °C; hits give low values; 170,000 tested, 0.53% active; relative growth, % (test concentration not listed);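 active = growth at 42 °C up to 50% and 20 or more points under that at 30 °C, or under 10% at both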;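 also: 300 nL library stock went into each well; scaled to the means of positive and negative controls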
Sa growth inh second temp – second read-out of Sa growth inh, no call of its own (marks repeat the call); relative growth, %; measured here: growth at 30 °C;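 optical density after 20 h as mean of two plates; 100% = untreated growth and lower means inhibition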
The depositor's hits bear a star; / = no result given; & = joins results of further samples.

The first 4 entries, to show the layout:
[1] O=C1OC(COc2ccc(Br)cc2)CN1c1ccccc1 (stereo not given)
[2] O=S(=O)(Nc1ccc(S(=O)(=O)C(F)F)cc1)C1=Cc2ccccc2CC1
[3] COc1cccc(-n2c(N)c(C(N)=O)c3nc4ccccc4nc32)c1
[4] Brc1ccc(OCc2nnc3sc(-c4ccccc4)nn23)cc1

Assay by compound	1	2	3	4
HCMV UL50-53 inh	-18	-14	-5	-24
GIV-Gai inh	99	/	105	109
Sa growth inh	96	98	96	/
Sa growth inh second temp	93	62	83	/

This part in full, from the first entry:
[1] O=C1OC(COc2ccc(Br)cc2)CN1c1ccccc1 (stereo not given)
[2] O=S(=O)(Nc1ccc(S(=O)(=O)C(F)F)cc1)C1=Cc2ccccc2CC1
[3] COc1cccc(-n2c(N)c(C(N)=O)c3nc4ccccc4nc32)c1
[4] Brc1ccc(OCc2nnc3sc(-c4ccccc4)nn23)cc1
[5] CCN(CC)C(=O)C1CCCN(c2ncnc3c2c(-c2ccccc2)cn3-c2cccc(C)c2)C1 (stereo not given)
[6] CCCCOC(=O)Cn1c(=O)c2c(nc3n2CCCCN3c2ccc(OCC)cc2)n(C)c1=O
[7] CCOc1ccc(CCNC(=O)c2ccc(Nc3nc4ccccc4n4nnnc34)cc2)cc1OCC
[8] COc1ccc(-c2cc(C(=O)NC(C)(C)CO)on2)cc1OC

Assay by compound	1	2	3	4	5	6	7	8
HCMV UL50-53 inh	-18	-14	-5	-24	/	0	6	/
GIV-Gai inh	99	/	105	109	105	100	108	103
Sa growth inh	96	98	96	/	118	/	91	107
Sa growth inh second temp	93	62	83	/	46	/	99	93

3 entries from above, bar-delimited.
item | Molecule | HCMV UL50-53 inh | GIV-Gai inh | Sa growth inh | Sa growth inh second temp
6 | CCCCOC(=O)Cn1c(=O)c2c(nc3n2CCCCN3c2ccc(OCC)cc2)n(C)c1=O | 0 | 100 | / | /
7 | CCOc1ccc(CCNC(=O)c2ccc(Nc3nc4ccccc4n4nnnc34)cc2)cc1OCC | 6 | 108 | 91 | 99
8 | COc1ccc(-c2cc(C(=O)NC(C)(C)CO)on2)cc1OC | / | 103 | 107 | 93

Going on with the list.
[9] O=C1COc2ccc(NC(=O)c3ccccc3)cc2N1
[10] O=C1c2ccccc2C(O)(Cc2ccccc2)N1CCCO (stereo not given)
[11] Clc1ccc(-c2csc(=Nc3ccccc3)n2Cc2ccc3c(c2)OCO3)cc1
[12] CN(C)C(CNC(=O)c1ccc2c(c1)OCCO2)c1ccco1 (stereo not given)
[13] CCOC(=O)c1ccc(S(=O)(=O)NCC(c2ccccc2)N(C)C)cc1 (stereo not given)
[14] O=C(Nc1ccc2oc(-c3cccc(F)c3)nc2c1)c1ccc2ccccc2c1
[15] CC1CN(C(=O)c2ccc3c(c2)OCO3)C(C)CN1C(=O)c1ccc2c(c1)OCO2 (stereo not given)
[16] CN(CC(=O)N1CCOCC1)C(=O)c1ccc(N2CCNCC2)c(NS(C)(=O)=O)c1

Assay by compound	9	10	11	12	13	14	15	16
HCMV UL50-53 inh	-29	-4	2	-11	2	-12	-19	-8
GIV-Gai inh	105	/	102	/	/	104	103	101
Sa growth inh	/	89	96	92	99	91	104	/
Sa growth inh second temp	/	93	101	95	92	87	83	/

[17] CCn1cc(C(=O)O)c(=O)c2cc(F)c(N3CCN(C(=S)NC(=O)c4c(-c5ccccc5)noc4C)CC3)cc21
[18] Cc1ccc(S(=O)(=O)N(C)c2ccc(OCC(=O)N(C)Cc3ccc(C)o3)cc2)cc1
[19] C=C1SC(Nc2ccc(C(=O)OCC)cc2)=NC12CCCCC2
[20] CN1CCN(CCCn2nnc3c(=O)oc4ccccc4c32)CC1
[21] CCn1c(=O)cc(OCC(=O)NCc2cccs2)c2ccccc21
[22] Cc1cccc(Cn2c(=O)n(CCCC(=O)NCc3ccccc3Cl)c(=O)c3ccccc32)c1
[23] O=C(Cn1nc(-c2ccccc2)c2ccccc2c1=O)Nc1cccc(C(F)(F)F)c1
[24] CCOC(=O)CC1=C(C(=O)OCC)C(c2c(Cl)cccc2Cl)C(C#N)=C(N)O1 (stereo not given)

Assay by compound	17	18	19	20	21	22	23	24
HCMV UL50-53 inh	-8	-11	7	-11	-3	5	/	9
GIV-Gai inh	104	/	103	100	102	109	104	105
Sa growth inh	2.0*	25	94	90	108	97	105	/
Sa growth inh second temp	1.0*	34	97	90	74	91	87	/

[25] CCN1CCn2c3c(c4cc(Br)ccc42)CCCC31 (stereo not given)
[26] CCOc1ccccc1NC(=O)CC(C)S(=O)(=O)c1ccc2c(c1)NC(=O)CS2 (stereo not given)
[27] CSc1ccc(NC(=O)NCC2COc3ccccc3O2)cc1 (stereo not given)
[28] O=C(O)C1CCN(C(=O)C2CCC2)CC1
[29] O=C(O)CC1(CC(=O)Nc2cccnc2)CCCCC1
[30] O=C(NCC(F)(F)F)OCc1ccc(F)cc1
[31] COc1ccccc1NC(=S)NCc1cccn1C
[32] COC(=O)c1ccccc1NS(=O)(=O)c1ccc2c(c1)CCCN2C(C)=O

Assay by compound	25	26	27	28	29	30	31	32
HCMV UL50-53 inh	-29	13	28	4	-2	-9	-19	-14
GIV-Gai inh	99	121	109	104	102	104	105	98
Sa growth inh	91	96	85	90	102	114	104	103
Sa growth inh second temp	84	101	97	93	85	102	88	87

[33] CC1(C)Cc2cccc(Oc3ncnc4sccc34)c2O1
[34] CNS(=O)(=O)c1cc(C(C)(C)C)cc(C)c1C
[35] Cc1c(NC(C)C(=O)Nc2ccc(S(=O)(=O)N3CCOCC3)cc2)c(=O)n(-c2ccccc2)n1C (stereo not given)
[36] COC(=O)CC/C(O)=C1\C(=N)CC(C)(C)CC1=O
[37] CC1(C)Cc2c(c(=O)n(-c3ccccc3)c3ncnc(N)c23)CO1
[38] Cc1ccc(NC(=O)NCc2c(-n3cccc3)sc3c2CCCC3)c(Cl)c1
[39] COc1ccc(-c2nc3cc(F)c(Cl)cc3nc2-c2ccc(OC)cc2)cc1
[40] COc1cccc2cc(C(=O)CBr)c(=O)oc12

Assay by compound	33	34	35	36	37	38	39	40
HCMV UL50-53 inh	-13	-6	1	-25	/	9	/	-31
GIV-Gai inh	/	100	/	102	101	104	102	/
Sa growth inh	98	99	82	107	127	94	90	96
Sa growth inh second temp	98	85	92	88	94	101	90	80

[41] CCSc1n[nH]c(C(F)(F)F)n1
[42] COc1ccc(C2C(C(=O)Nc3ccccc3)=C(C)Nc3nc(-c4ccccc4)nn32)c(OC)c1 (stereo not given)
[43] O=C(NCc1n[nH]c(=O)c2ccccc12)C1CC1
[44] CCCc1nc2c(sc3nc(COC)cc(C)c32)c2nc3ccccc3n12
[45] CC1CCN(S(=O)(=O)c2ccc(-c3noc(-c4ccnn4C)n3)cc2)CC1
[46] O=C(CCN=C1NS(=O)(=O)c2ccccc21)Nc1cccnc1
[47] Cc1ccc(C)c(Nc2ncnc3onc(C)c23)c1
[48] CSc1ccccc1NC(=O)CN(C)C(=O)Cn1c(=O)oc2ccccc21

Assay by compound	41	42	43	44	45	46	47	48
HCMV UL50-53 inh	-19	-1	-30	-1	-14	-31	/	-15
GIV-Gai inh	110	97	104	/	110	/	109	/
Sa growth inh	104	106	77	97	/	82	81	88
Sa growth inh second temp	92	96	90	93	/	81	91	87

[49] Cc1oc(-c2cccc(Cl)c2)nc1CN1CCC(C(=O)NCc2ccc(Cl)cc2)CC1
[50] O=C(NCCSc1nnnn1-c1ccccc1)c1ccco1
[51] Fc1ccccc1-c1ccc(SCc2nc(-c3ccccc3Cl)no2)nn1
[52] O=C(O)CS(=O)(=O)c1ccccc1
[53] COc1ccccc1N1C(=O)C=CC1=O
[54] COc1ccc(C2NC(=O)NC(C)=C2C(=O)Nc2ccccc2)cc1OC (stereo not given)
[55] COc1ccc(S(=O)(=O)N2Cc3ccccc3CC2C(=O)Nc2nccs2)cc1OC (stereo not given)
[56] COc1cccc(CNC(=O)c2cccs2)c1

Assay by compound	49	50	51	52	53	54	55	56
HCMV UL50-53 inh	/	0	-1	5	5	-15	-2	-35
GIV-Gai inh	101	105	108	105	/	100	108	/
Sa growth inh	82	122	/	100	99	98	101	81
Sa growth inh second temp	85	84	/	101	97	101	90	87

[57] Cc1ccc(C)c(C(=O)OC2CCCCC2=O)c1 (stereo not given)
[58] Cn1nnnc1SCC(=O)N1c2ccccc2Sc2ccccc21
[59] CC(=O)Nc1ccc(C(=O)CSc2nc3ccccc3n2C)cc1
[60] CCOc1ccc2nc(S/C=C/C(=O)c3ccc(Cl)cc3)sc2c1
[61] Cc1ccc(NS(=O)(=O)c2cn(C)cn2)cc1
[62] CC(C)C(NS(=O)(=O)c1ccc2c(c1)OCCCO2)C(=O)O (stereo not given)
[63] Cc1cc(C)c2c(-n3cccc3)nn(Cc3ccc(C(=O)N4CCCCC4)cc3)c2n1
[64] O=c1[nH]c(CSC2CCCCC2)nc2ccccc12

Assay by compound	57	58	59	60	61	62	63	64
HCMV UL50-53 inh	-14	-9	-14	-53	/	4	-5	-34
GIV-Gai inh	/	/	101	97	106&95	/	113	96
Sa growth inh	78	97	96	95	106	94	/	92
Sa growth inh second temp	91	91	78	82	97	101	/	88

[65] CC(C)OC(=O)c1cc(NC(=O)C2C3CCC(O3)C2C(=O)O)cc(C(=O)OC(C)C)c1 (stereo not given)
[66] CC(C)C(=O)c1cc2c(cc1N)OCCO2
[67] O=C(Cn1cnc(S(=O)(=O)N2CCCCC2)c1)NCc1ccco1
[68] COc1cc(SC)ccc1C(=O)N(C)Cc1ccccc1
[69] c1cc(Nc2ncnc3sccc23)cc(-c2nnc3n2CCCCC3)c1
[70] COc1cc2c3nc4n(c(=O)c3n(CC(=O)NC3CCCC3)c2cc1OC)CCS4
[71] Cc1cc(C)c2c(n1)SCCN2C(=O)Nc1ccc(Br)c(C)c1
[72] CN(C)c1ccc(C2CC(=O)C=C(NCc3cccs3)C2)cc1 (stereo not given)

Assay by compound	65	66	67	68	69	70	71	72
HCMV UL50-53 inh	-8	-15	-22	-12	-22	-18	-1	-7
GIV-Gai inh	100	105	99	/	/	100	103	104
Sa growth inh	98	101	106	113	58	96	/	118
Sa growth inh second temp	77	103	94	91	74	74	/	101

[73] CCN1CCN(Cc2ccc(NC(=O)Cn3ncc4c3-c3ccccc3OC4)cc2)CC1
[74] COc1ccc2oc(=O)cc(CN(C)Cc3ccco3)c2c1
[75] O=C(NCCCn1ccnc1)c1nc(-c2ccc(C(F)(F)F)cc2)no1
[76] CN1CCCN(Cn2nc3ccccn3c2=S)CC1
[77] CC(=O)c1cc(-c2ccc(F)cc2)n(CCC(=O)NCc2ccc(C)cc2)c1C
[78] CC1=C(C(=O)Nc2ccc(C)cc2C)C(c2cccs2)n2nc(SCc3cccc(C)c3)nc2N1 (stereo not given)
[79] CCn1c(=O)c(=O)[nH]c2cc(C(=O)NCCSCc3ccco3)ccc21
[80] CCOc1ccccc1-n1nnnc1SCC(=O)Nc1cc(C)ccc1C(=O)O

Assay by compound	73	74	75	76	77	78	79	80
HCMV UL50-53 inh	-1	/	-7	-21	/	2	-15	/
GIV-Gai inh	97	102	102	/	98	108	/	102
Sa growth inh	109	101	105	86	80	96	93	76
Sa growth inh second temp	90	83	103	87	85	94	91	81

[81] COc1ccccc1N1CCN(C(=O)[C@H](C)N2CCN(c3nc4cc(Cl)ccc4s3)CC2)CC1
[82] CCOc1ccc(CCNC(=O)Cn2nnc(-c3ccc(OC)c(OC)c3)n2)cc1OCC
[83] Cc1nc2nc(-c3ccccc3)nn2c(C)c1CC(=O)N(C)Cc1ccccc1
[84] CS(=O)(=O)/C(C#N)=C/c1ccc(-c2cccs2)s1
[85] O=C(NCCOCCO)C(=O)Nc1c2c(nn1-c1ccc(F)cc1)CSC2
[86] CCc1ccc(N2C(=O)N(Cc3ccc(F)cc3Cl)C3CS(=O)(=O)CC32)cc1 (stereo not given)
[87] Cc1ccc(N2CC(C(=O)OCc3nc(N)nc(Nc4ccccc4C)n3)CC2=O)cc1 (stereo not given)
[88] C[N+]1(C)CCOC12CCCCC2

Assay by compound	81	82	83	84	85	86	87	88
HCMV UL50-53 inh	-16	-16	-18	-12	/	2	-23	-3
GIV-Gai inh	103	102	107	104	100	97	/	98
Sa growth inh	90	86	/	105	136	/	108	101
Sa growth inh second temp	93	92	/	68	91	/	80	97

[89] Clc1ccc(-c2noc3ncnc(Nc4ccccc4)c23)cc1
[90] O=C(Nc1ccc(-c2cc3ccccc3[nH]2)cc1)c1cc2ccccc2[nH]1
[91] Cc1cccc(S(=O)(=O)c2cn(C)c3cc(N4CCC(C)CC4)c(F)cc3c2=O)c1
[92] COc1ccc(NC(=O)c2cnc(N3CCOCC3)c3ccccc23)cc1OC
[93] CCc1ccc(-c2nc(SCC(=O)NCC3CCCO3)c(-c3ccc(C)cc3)[nH]2)cc1 (stereo not given)
[94] Cc1ccc(-n2ncc3c(Nc4ccc5c(c4)OCCO5)ncnc32)cc1C
[95] CCOC(=O)/C(C#N)=C1/C=C(C)NC(c2ccccc2O)=N1

Assay by compound	89	90	91	92	93	94	95
HCMV UL50-53 inh	-26	-17	/	/	-15	/	-15
GIV-Gai inh	97	107	109	112	98	112	99
Sa growth inh	95	/	96	94	98	135	110
Sa growth inh second temp	82	/	104	85	88	93	49
